# Assay outcomes: PubChem BioAssay, ICCB-Longwood Screening Facility, Harvard Medical School
# HCMV NEC inh – inhibitors of HCMV UL50-UL53 interaction, biochemical, HTRF. HCMV UL50-UL53 nuclear egress complex (human cytomegalovirus). normalized percent inhibition. inhibition, % (no concentration beside the values). hit rate 0.15% among 190,000. AID 1918969, 2023;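 active = both replicates at 50% or more, plus weaker picks with an unusually low signal ratio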;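 note: stock transfer was 100 nL into about 20 µL; 0% = negative control wells and 100% = wells with untagged competitor protein; inactives centre near -12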
# Sa growth inh – S. aureus growth inhibition at 42 and 30 °C, primary screen, LtaS inhibitor project, RN4220, two temperatures. OD600, 20 h, 42 °C; stronger effect = lower value. relative growth, % (test concentration not listed). hit rate 0.53% among 170,000. AID 720641, 2013;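 active = growth at 42 °C up to 50% and 20 or more points under that at 30 °C, or under 10% at both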;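 note: 300 nL library stock went into each well; scaled to the means of positive and negative controls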
# GIV Gai3 FP – inhibitors of GIV peptide binding to Galpha-i3, primary screen, biochemical, fluorescence polarization, FITC-GIV GBA peptide, rat Galphai3 | Guanine nucleotide-binding protein G(i) subunit alpha-3 (Rattus norvegicus), P08753 | 90 min; stronger effect = lower value; scaled: aluminum fluoride 0%, vehicle 100% | percent of control (FP), % (no concentration beside the values) | hit rate 0.42% among 210,000;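 active = replicate mean at 85% of control or lower, very high polarization wells dropped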;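 note: wells of about 15 µL received 100 nL stock; the first replicate is given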
# Target sequence (P08753 whole entry, looked up): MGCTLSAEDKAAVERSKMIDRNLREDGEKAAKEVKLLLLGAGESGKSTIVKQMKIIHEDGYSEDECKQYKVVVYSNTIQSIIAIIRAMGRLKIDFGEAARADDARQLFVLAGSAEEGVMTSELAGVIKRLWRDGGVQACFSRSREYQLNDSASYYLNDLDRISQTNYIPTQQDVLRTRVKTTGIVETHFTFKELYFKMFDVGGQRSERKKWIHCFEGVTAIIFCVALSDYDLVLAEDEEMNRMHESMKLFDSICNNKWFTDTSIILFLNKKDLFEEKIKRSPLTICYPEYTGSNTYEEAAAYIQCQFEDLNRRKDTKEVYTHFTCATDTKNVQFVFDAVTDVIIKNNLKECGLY
# Sa growth inh second temp – second read-out of Sa growth inh, no call of its own (marks repeat the call); relative growth, %; measured here: growth at 30 °C;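 optical density after 20 h as mean of two plates; 100% = untreated growth and lower means inhibition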
# Numbers without * were called inactive; / = no result given; & = joins results of further samples.
SMILES,HCMV NEC inh,Sa growth inh,Sa growth inh second temp,GIV Gai3 FP
S=C(NCc1ccccc1)NCc1ccccn1,-31,98,88,100
COc1ccc(CCNC(C#N)c2cc(Br)ccc2O)cc1OC (stereo not drawn),-19,90,75,101
COc1ccc(NC(=O)c2cccs2)cc1OC1CCCC1,-8,89,75,106
O=C(CSc1ncnc2c1oc1ccccc12)OCc1c(F)cccc1Cl,-22,112,81,/
CCC(=O)OC1=C(C)C2C3C(=O)N(c4ccc(F)cc4)C(=O)C3C1(C)C1C(=O)N(c3ccc(F)cc3)C(=O)C21 (stereo not drawn),-28,/,/,103
N#C/C(=C\N1CCN(c2ccccc2)CC1)S(=O)(=O)c1ccc(F)cc1,-18,105,90,99
CN(C(=O)CCCN1C(=O)c2ccccc2C1=O)C1CC(C)(C)N(C)C(C)(C)C1,-10,78,96,98
CCCCNC(=O)C1CCN(c2nc3ccccc3nc2C(F)(F)F)CC1,/,79,90,104
COC(=O)CSc1nc(C)nc2scc(-c3cccs3)c12,-37,112,79,/
CC(C)NCC(=O)Nc1ccc(-c2ccccc2)cc1,5,135,96,/
CCCOc1ccc(NC(=O)CC2C(=O)N(c3ccc(C)cc3)C(=O)N2CCc2ccncc2)cc1 (stereo not drawn),/,122,50,105
CC(NCC1COc2ccccc2O1)C(=O)Nc1ccc(S(N)(=O)=O)cc1 (stereo not drawn),4,106,94,/
O=C1C(=Nc2ccc(Cl)cc2)c2ccccc2N1CN1CCc2ccccc2C1,-7,83,95,/
CCOc1ccccc1C(=O)N(C)c1ccccc1,-32,94,96,110
Cc1ccsc1C(=O)Oc1ccc(F)cc1,-24,123,92,/
O=C(Nc1ccc(CN2CCS(=O)(=O)CC2)cc1)c1ccc(Cl)cc1,-17,99,87,103
Cn1c(=O)c2nc3ccc(N=Cc4c(O)n(Cc5ccccc5)c(=O)[nH]c4=O)cc3nc2n(C)c1=O,-18,104,92,96
COc1cc([N+](=O)[O-])ccc1NC(=O)N1CCC2(CC1)Nc1ccccc1-n1cccc12,/,98,93,100
CC(N)C(=O)N1CCN(c2nc(-c3ccccc3)c3cc([N+](=O)[O-])ccc3n2)CC1 (stereo not drawn),-112,/,/,103
CN1CCN(C(=O)CN2C(=O)CCCc3ccccc32)CC1,-5,/,/,108
Cc1cccc(/C=C2/Sc3ccccc3C2=O)c1,37,98,93,102
O=C(c1cnn(-c2ccccc2)c1-n1cccc1)N1CCN(c2ccccc2)CC1,-8,103,90,101
COc1ccc(-c2cc(C(=O)NCc3cc(OC)c(OC)c(OC)c3)[nH]n2)cc1,/,95,100,101
CCn1c(=O)c(SCC(=O)N2CCOCC2)nc2ccccc21,-47,/,/,112
Cc1ccc(-n2c(CNC(=O)c3cccs3)nnc2SCC(=O)NO)cc1,-38,83,84,103
N#Cc1ccsc1NC(=O)C1CCC1,-21,79,88,/
O=C1NC(NS(=O)(=O)c2ccccc2)(C(F)(F)F)C(=O)N1c1ccc(F)cc1 (stereo not drawn),18,111,90,105
Cc1[nH]c(C(=O)N2CCCC(C(=O)NCCCN3CCCC3)C2)c(C)c1C(=O)OC(C)C (stereo not drawn),-28,/,/,98
CCn1c2ccccc2c2cc(C3C(C#N)=C(N)OC4=C3C(=O)CC(C)(C)C4)ccc21 (stereo not drawn),-24,/,/,101
CCc1cccc(CC)c1NC1=NS(=O)(=O)c2ccccc21,-18&7,90,89,103&105
Cc1cccc(N(C)S(=O)(=O)c2ccc(CN3C(=O)c4cccnc4C3=O)cc2)c1,-40,91,92,102
O=C(COc1cc(O)c2c(=O)cc(-c3ccccc3)oc2c1)N[C@@H](C(=O)O)c1ccccc1,-27,/,/,98
CCN(C(=O)c1cc(S(=O)(=O)N2CCc3ccccc32)cn1C)c1ccccc1,/,143,80,109
Cc1oc2ncn(C)c(=O)c2c1C(=O)NC(C)c1ccccc1 (stereo not drawn),/,95,97,111
CC1=C(C(=O)Nc2cccc3ccccc23)C2(CCN(C(C)C)CC2)OC1=O,-18,106,92,99
CCOC(=O)CNc1cccc(Cl)c1,13,102,110,106
COc1ccc(-n2cnc3sc4c(c3c2=O)CCCC4)cc1,-9,110,91,103
CC(C)N1CC(COc2ccc(F)cc2)OC1=O (stereo not drawn),-10,102,93,103
Cc1ccc(Nc2nc3ccc(C(=O)c4ccccc4)cc3n3c(C)nnc23)c(C)c1,/,93,85,97
OC(COc1ccc(-c2csnn2)cc1)CSc1ccccc1 (stereo not drawn),-8,132,103,103
Nc1nc2ccccc2n1Cc1ccc(Cl)cc1,12,86,75,/
CCN(Cc1ccccc1)S(=O)(=O)c1ccc2oc(C(=O)O)c(C)c2c1,-29,101,88,99
CNC(=O)N1CCCC(c2cccc(C(=O)NCc3ccc(F)cc3F)c2)C1 (stereo not drawn),-28,/,/,110
N#CC(C#N)=Cc1cn(CCCOc2ccccc2Cl)c2ccccc12,-5,92,87,104
CCOc1ccc(CCNC(=O)c2nn(C)c3c2CSc2ccccc2-3)cc1,-29,121,93,101
COc1cc2c(cc1OC)C(C(=O)Nc1cc(C)c(OC)c(C)c1)CC(=O)N2 (stereo not drawn),-7,90,90,99
Cc1cccc(N2CCN(C(=O)c3c(C)oc4ncnc(N5CCOCC5)c34)CC2)c1C,/,100,88,103
CCOC(=O)c1c(NC(=O)C(F)(F)F)sc2c1CCCC2,40,101,93,98
O=C(Nc1ccccc1C(=O)NC1CCSC1)c1cccc(Cl)c1 (stereo not drawn),1,106,96,102
O=C(c1ccccc1)N(Cc1ccco1)C1CCS(=O)(=O)C1 (stereo not drawn),/,94,89,102

# A draw from above in order of count of non-hydrogen atoms, ascending:
SMILES,HCMV NEC inh,Sa growth inh,Sa growth inh second temp,GIV Gai3 FP
CCOC(=O)c1c(NC(=O)C(F)(F)F)sc2c1CCCC2,40,101,93,98
O=C(c1ccccc1)N(Cc1ccco1)C1CCS(=O)(=O)C1 (stereo not drawn),/,94,89,102
CCN(Cc1ccccc1)S(=O)(=O)c1ccc2oc(C(=O)O)c(C)c2c1,-29,101,88,99
CNC(=O)N1CCCC(c2cccc(C(=O)NCc3ccc(F)cc3F)c2)C1 (stereo not drawn),-28,/,/,110

# Other entries
SMILES,HCMV NEC inh,Sa growth inh,Sa growth inh second temp,GIV Gai3 FP
N#CCN(CC#N)S(=O)(=O)c1ccccc1,-9,93,103,102
Cc1cc(NC(=O)COc2ccccc2)n(-c2ccccc2)n1,-4,109,85,/
COc1ccc(C2=Nc3ccccc3N(Cc3cc(C)ccc3C)C(=O)C2)cc1,-19,/,/,101
Cc1ccc(C)c(Cn2nnc3c(=O)[nH]c(C4CCCN(C(=O)CC5CCCC5)C4)nc32)c1 (stereo not drawn),-11,/,/,101
COc1cc(OC)cc(C(=O)N2CC(=O)Nc3ccc(Cl)cc3C2c2ccccc2)c1 (stereo not drawn),-12,102,88,103
Cc1nn2c(NC(C)C)cc(C(C)(C)C)nc2c1-c1ccc(F)cc1,-4,/,/,95
O=C1C=CC(=O)C(CCCCCCC2=CC(=O)C=CC2=O)=C1,-18,96,82,113
Cn1c(CCc2cccc(NC(=O)CN3C(=O)COc4ccccc43)c2)nc2ccccc21,-8,/,/,100
N/C(COc1ccccc1)=N\O,-11,114,91,105
O=C1NCC(=O)N2CCCC12 (stereo not drawn),-17&-10,90,85,97

# Part of the list above, with each value named:
> COc1cc(OC)cc(C(=O)N2CC(=O)Nc3ccc(Cl)cc3C2c2ccccc2)c1 (stereo not drawn)
- HCMV NEC inh = -12
- Sa growth inh = 102
- Sa growth inh second temp = 88
- GIV Gai3 FP = 103

> Cn1c(CCc2cccc(NC(=O)CN3C(=O)COc4ccccc43)c2)nc2ccccc21
- HCMV NEC inh = -8
- Sa growth inh = /
- Sa growth inh second temp = /
- GIV Gai3 FP = 100

> O=C1C=CC(=O)C(CCCCCCC2=CC(=O)C=CC2=O)=C1
- HCMV NEC inh = -18
- Sa growth inh = 96
- Sa growth inh second temp = 82
- GIV Gai3 FP = 113

> Cc1ccc(C)c(Cn2nnc3c(=O)[nH]c(C4CCCN(C(=O)CC5CCCC5)C4)nc32)c1 (stereo not drawn)
- HCMV NEC inh = -11
- Sa growth inh = /
- Sa growth inh second temp = /
- GIV Gai3 FP = 101

# (cont.)
SMILES,HCMV NEC inh,Sa growth inh,Sa growth inh second temp,GIV Gai3 FP
CCOC(=O)CSc1nc2c(c(=O)n1-c1ccccc1)C(=O)C1COC(C)(C)CC1=N2 (stereo not drawn),-24,92,101,109
Cc1oc(-c2cccc(C(F)(F)F)c2)cc1C(=O)NC(C)C,/,88,82,101
Nc1nc(-c2ccc(Cl)cc2)cc(C(F)(F)F)n1,-9,101,89,101
COc1cc(Cl)c(C)cc1NC(=S)N(CCN1CCCCCC1)Cc1ccco1,-4,93,77,105
O=C(Nc1nnc(C2CC2)o1)c1ccc(S(=O)(=O)N2CCCc3ccccc32)cc1,-2,76,41,98
COc1cccc(-n2cc(C(=O)Nc3cc(OC)c(OC)c(OC)c3)c3ccccc3c2=O)c1,/,97,107,107
CCCn1nnc(NCc2ccc(-c3ccc(C)c(Cl)c3)o2)n1,-11,/,/,99
CCCN1CCC(NC(=O)C2CCN(C(C)=O)CC2)CC1,-20,97,106,100
Nc1nonc1C(=O)NCCNCc1ccccc1F,-28,81,84,101
CCc1nc(SC)ncc1C(=O)N1CCN(c2cc(C)ccc2C)CC1,/,71,93,103
COc1cc(OC)c(NC(=O)CN2CC(c3ccccc3)CC2=O)cc1Cl (stereo not drawn),-11,89,91,102
COc1ccc(CCNC(=O)CCC(=O)N2CCCn3nc(C)cc32)cc1OC,-5,/,/,105
C/C(CCc1ccc2c(c1)OCO2)=N\NC(=O)c1cc2c3ccccc3n(C)c2s1,-7,104,94,/
CCCn1c(=O)c2ccccc2n2c(=O)n(CC(=O)Nc3cc(F)ccc3F)nc12,-2,/,/,104
CCCCOC(=O)c1ccc(NC(=O)CSCc2n[nH]c(=O)[nH]2)cc1,-14,117,95,99
O=C1c2ccccc2C(=O)c2cc(S(=O)(=O)Nc3cccc4cccnc34)ccc21,-21,/,/,103
O=C(NC1CCCC1)c1cc2ccccc2oc1=O,-87,103,89,107
O=C(Nc1cccc(Br)c1)N1CCN2CCCCC2C1 (stereo not drawn),/,103,89,101
CCN1CCN(C2(CNC(=O)CC(C)C)CCCCC2)CC1,-22,/,/,100
CC1CCc2cc(F)ccc2N1C(=O)C12CCC(C)(C(=O)C1)C2(C)C (stereo not drawn),-4,110,106,101
COc1ccc(C2=NN(C(=O)CCCC(=O)O)C(c3cccc(OC)c3OC)C2)cc1OC (stereo not drawn),-33,/,/,103
Cc1nc2c3c(-c4ccccc4)nc(N4CCCCCC4)nc3nn2c(C)c1CCC(=O)O,4,76,92,103
O=C(COc1ccccc1/C=C1\N=C2CCCCCN2C1=O)N1CCCC1,-46,98,98,/
COc1ccc(-c2cc(OC(=O)c3ccc(Cl)cc3)c3c(C)oc(C)c3c(=O)c2)cc1OC,-50,/,/,117
COc1ccc(C(=O)N2CCc3cc(OC)c(OC)cc3C2C)c(OC)c1 (stereo not drawn),1,103,88,102
O=C(Nc1ccc(-c2cn3cccnc3n2)cc1)C1CCCCC1,-23,85,89,94
Cc1ccc2c(c1)cc(CN(Cc1ccco1)C(=O)c1ccccc1)c1nnnn12,1,110,87,99
CCOC(=O)C(C#N)c1ccccn1 (stereo not drawn),0,107,125,100
CCOC(=O)C1(C(F)(F)F)N=C(N2CCOCC2)Oc2c1c(C)nn2-c1ccccc1 (stereo not drawn),-8,87,80,107
CNc1nc2c(c(=O)[nH]c(=O)n2C)n1CCCCCn1c(NC)nc2c1c(=O)[nH]c(=O)n2C,-8,/,/,95
CCC(C(=O)Nc1ccccn1)c1ccccc1 (stereo not drawn),-11,77,111,99
O=C1COc2ccc(S(=O)(=O)N3CCCC3C(=O)N3CCc4ccccc4C3)cc2N1 (stereo not drawn),-18,/,/,104
COc1ccc(-n2cnc3cc(NC(=O)c4ccco4)ccc32)cc1,-6,73,26,102
COc1ccc(N2C(=O)CC(c3ccc(OC)c(OC)c3)CC2=O)cc1,-19,/,/,99
Cc1ccc(S(=O)(=O)Cc2ccc(C(=O)N3CCc4ccccc4C3)o2)cc1,5,107,75,102
Cc1nn(-c2ccccc2)c2sc(C(=O)NCCCN3CCCC3=O)cc12,-20,107,74,/
O=C(Nc1nc2ccccc2s1)c1ccc(S(=O)(=O)N2CCCC2)cc1,/,113,88,100
Cc1cc(C)cc(-n2c(SCC(=O)Nc3ccccc3C(F)(F)F)nc3c(c2=O)SCC3)c1,/,85,94,102
Cc1ccc(Cl)cc1N1CCN(C(=O)c2cnn(-c3ccc(Cl)cc3)c2C2CCNCC2)CC1,/,125,76,106
CCC(=O)Nc1nnc2n1CCS2,/,93,84,99
O=C(O)c1ccccc1C(=O)Nc1ccc(-n2nccc2C(F)(F)F)cc1,/,101,90,99
Cc1ccc2c(c1)N(CC(=O)NCCc1ccccc1)C(=O)CO2,-3,101,92,105
CCOC(=O)c1nc(NC2CCS(=O)(=O)C2)c2c(C)noc2n1 (stereo not drawn),-25,/,/,102
COc1ccccc1CNC(=O)COC(=O)Cc1ccsc1,10,107,91,/
CCC(C)Cn1c(CN2CCOCC2)nc2ccccc21 (stereo not drawn),-3,/,/,102
O=C(NCc1ccc(F)cc1)c1cccc(N2CCCS2(=O)=O)c1,-23,91,86,104&102
O=C(O)CSc1ccc(F)cc1Cl,-16,88,77,96
Cc1cc(NC(=O)c2ccccc2)n(-c2nc(C)c(C)c(=O)[nH]2)n1,-5,/,/,95
